Assay outcomes as filed in PubChem.
TRPV1 potentiator: enhances activation of the human vanilloid receptor TRPV1 | Q8NER1 | TRPV1-expressing cells, Fluo-8 calcium influx, capsaicin EC20 potentiation; host cell line not named in the record; control for the full effect not named in the record | potentiation, % at 8.33 µM | actives 0.02% (n = 320,000) | AID 540277; active means potentiation above 80%; inconclusive means 30% to 80%; inactive means below 30%; further: 0% is about no effect
Target sequence (Q8NER1 whole entry, looked up): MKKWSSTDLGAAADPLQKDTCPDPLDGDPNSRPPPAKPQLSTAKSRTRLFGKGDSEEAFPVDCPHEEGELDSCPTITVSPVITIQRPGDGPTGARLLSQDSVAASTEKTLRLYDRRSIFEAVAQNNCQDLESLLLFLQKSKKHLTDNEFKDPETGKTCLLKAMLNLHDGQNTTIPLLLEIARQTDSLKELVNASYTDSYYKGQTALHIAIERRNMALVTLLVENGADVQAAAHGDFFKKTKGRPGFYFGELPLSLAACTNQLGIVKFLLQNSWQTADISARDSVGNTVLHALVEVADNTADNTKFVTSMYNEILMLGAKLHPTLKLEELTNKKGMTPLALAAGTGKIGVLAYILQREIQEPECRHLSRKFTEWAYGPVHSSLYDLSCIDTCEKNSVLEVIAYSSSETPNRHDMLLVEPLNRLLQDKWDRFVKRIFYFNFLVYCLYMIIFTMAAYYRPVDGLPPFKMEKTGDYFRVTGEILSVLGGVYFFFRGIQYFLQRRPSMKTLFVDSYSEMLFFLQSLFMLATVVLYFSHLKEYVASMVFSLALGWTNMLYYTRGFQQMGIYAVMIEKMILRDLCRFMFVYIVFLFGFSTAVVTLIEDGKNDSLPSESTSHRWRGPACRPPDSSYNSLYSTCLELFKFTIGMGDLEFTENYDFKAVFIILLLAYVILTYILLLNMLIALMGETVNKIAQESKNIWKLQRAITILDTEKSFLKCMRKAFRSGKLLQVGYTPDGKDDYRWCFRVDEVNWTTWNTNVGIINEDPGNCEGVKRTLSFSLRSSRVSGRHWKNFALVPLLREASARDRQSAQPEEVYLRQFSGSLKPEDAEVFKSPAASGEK
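TRPV1-expressing cells were cultured overnight at 35.5C and loaded with Fluo-8 calcium dye for 40 to 90 min at room temperature. After a 10 s baseline, compound was added and calcium influx was read kinetically for 3 min (ex 480/em 520 nm).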
TRPML1 blocker: blocks the human TRPML1 channel; TRPML1-inducible cells, Ca2+ dye fluorescence, FDSS; stronger effect = lower value; inhibition of EC80 agonist-evoked calcium signal; activity change, negative = inhibition, % (no concentration beside the values); actives 0.02% (n = 390,000); AID 624415; in the data active means activity change below about -50%; inconclusive means about -30% to -50%; inactive means above about -30%;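 further: stimulus is agonist 54-4 at its EC80 concentration; on the % scale 0 is the no-effect control and ±100 the full control effect; compound concentration not given in the record; the text of the record puts the active cut at -80%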
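Tet-induced TRPML1-DL cells loaded with Ca8 no-wash calcium dye were read kinetically on FDSS. Compound addition was followed by EC80 agonist 54-4 (4 uM final); inhibition was read over 110 s.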
PINK1 modulator: modulators of PINK1 expression. PINK1 immunofluorescence, high-content cytometry, 24 h. Potency, µM (series often up to 76.6 µM), inactives show top-dose activation (PINK1 increase), actives largely listed as activators. actives 0.2% (n = 410,000). AID 624263; active = well fitted activation curve with a large enough effect; inconclusive = small, poorly fitted or top-dose-only effect; inactive = flat fitted curve, though single readings scatter; cell line not stated here;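 further: potency means the concentration at half of the fitted maximal effect; % of control where 0% means no effect; nearly all actives have a fitted effect of over 65% in size; a mitochondrial uncoupler was the plate control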
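Decision-based qHTS: stable cells, 24 h exposure to five compound concentrations, CCCP as control. Fixed cells stained for PINK1 plus nuclear, mitochondrial and cell markers, cytometer read.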
ClpP mod: qHTS Assay for Activators of ClpP; Potency, µM (titrated, usually from 57.5 µM), inactives show at the top dose activity change, negative = active; purified B. subtilis ClpP, FRET peptide cleavage, 20 min; actives 1.9% (n = 340,000); ATP-dependent Clp protease proteolytic subunit (Bacillus subtilis (strain 168)), P80244; active = well fitted falling curve with a large enough effect; inconclusive = small, poorly fitted or top-dose-only effect; inactive = no such curve, though single readings can be large or run the other way; further: potency means the concentration at half of the fitted maximal effect; the source files actives as falling curves though it sought activators and does not explain the sign; nearly all actives have a fitted effect of over 65% in size; many hits overshoot -100%
Target sequence (P80244 whole entry, looked up): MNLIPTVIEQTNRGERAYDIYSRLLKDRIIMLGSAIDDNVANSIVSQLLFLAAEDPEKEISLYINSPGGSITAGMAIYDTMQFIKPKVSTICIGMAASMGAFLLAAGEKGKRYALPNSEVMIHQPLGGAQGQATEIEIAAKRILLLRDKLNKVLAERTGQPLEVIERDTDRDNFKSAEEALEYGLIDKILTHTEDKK
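ClpP 10 microg/mL final, pH 8 Tris/KCl buffer with BSA, glycerol, Tween-20; compound pinned in; FRET-FV substrate; RT 20 min; Ex320/Em430; ΔFRET vs ADEP 5.8 microM, DMSO, no enzyme.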
Menin-MLL FL inh: displaces fluorescein MLL peptide from human menin | Fluorescence polarization, fluorescein-MLL peptide displacement from menin | 290,000 tested, under 10 active | AID 1766 | FP activity change, % at 61.4 µM; inconclusive = falling polarisation curve, or a change in total fluorescence; inactive = total fluorescence flat and polarisation flat or rising; no compound was filed as active; the % refers to the polarisation; negative = inhibition;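 further: % of control where 0% means no effect; inhibitors lower the polarisation; unlabelled MLL peptide was the positive control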
Sfp PPTase inh: Sfp phosphopantetheinyl transferase inhibition; actives 3.5% (n = 310,000); AID 1490; Q9F4F7; Potency, µM, inactives show max response, negative = inhibition, hits mostly inhibitors; Biochemical Sfp PPTase activity, qHTS; active means well fitted inhibition curve with a large enough effect; inconclusive means small, poorly fitted or top-dose-only effect, or another doubt; inactive means no such curve, though single readings can be large or run the other way;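 further: the enzyme is Sfp with the accession as filed and its product quenches rhodamine fluorescence; potency means the concentration at half of the fitted maximal effect; 0% = enzyme reaction without inhibitor and -100% = no enzyme wells; top concentration of the series not given in the record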
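Buffer: 50 mM Hepes-Na pH 7.6, 10 mM MgCl2, 0.01% Nonidet P-40, 0.01% BSA. Enzyme 15 nM, pre-exposed to compound 15 min; substrates then added and fluorescence change tracked over 30 min.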
TRPML1 ag: activates the human TRPML1 channel; activation, % (test concentration not listed); actives 0.12% (n = 410,000); AID 624414; TRPML1-expressing cells, Ca2+ dye fluorescence, FDSS; host cell line not named in the record; reference of the full effect not given here; Q9GZU1; in the data active = activation above about 50%; inconclusive = about 30% to 50%; inactive = below about 30%; further: 0% is about no effect; the text of the record puts the active cut at 80%
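Tetracycline-induced TRPML1-DL cells are seeded and incubated overnight before loading with a no-wash Ca2+ dye and quencher. Agonist activity is taken from the 110 s fluorescence read following compound pin-transfer on an FDSS, before EC80 54-4 challenge.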
* = called active by the depositor; ? = inconclusive; . = no result given; [ ] = another dose, or the depositor's remark.

Values run as follows: TRPV1 potentiator	TRPML1 blocker	PINK1 modulator	ClpP mod	Menin-MLL FL inh	Sfp PPTase inh	TRPML1 ag
CC1(C)CC[C@]2(C(=O)n3ccnc3)CC[C@]3(C)[C@H](C(=O)C=C4[C@@]5(C)C=C(C#N)C(=O)C(C)(C)[C@@H]5CC[C@]43C)[C@@H]2C1
    .	42.4	-6.9%	-2.3%	.	.	5.3
O=c1oc2ccccc2c(N2CCCC2)c1CN1CCCC1
    3.0	4.5	.	-8.4%	-0.4	2.6%	-0.1
O=C(NCc1ccco1)c1cc2n(n1)C(C(F)(F)F)CC(c1ccc(Br)cc1)N2 (configuration not stated)
    3.4	-3.9	11.3%[38.3 µM]	1.0%	5.0	-2.0%	-0.6
CCNC(=O)/C(C#N)=C/c1c(N2CC(C)OC(C)C2)nc2ccccn2c1=O (configuration not stated)
    -7.9	-19.6	0.5%	-15.6%	.	4.9%	1.8
CN(C(=O)c1cccc(NC(=O)c2cccs2)c1)c1ccccc1
    24.0	36.2	-1.0%	-0.9%	.	-0.6%	1.9
CNC(=O)CSc1nnc(-c2ccco2)n1-c1cccc(C)c1
    0.7	0.3	-0.1%	-2.7%	-1.6	10.5%	-0.8
CCc1ccc(C(=O)COC(=O)CNC(=O)CNC(=O)Cc2ccccc2)cc1
    2.9	17.2	-0.6%	-0.2%	3.6	5.7%	0.4
COc1ccc(C(=O)N2CCN(Cc3ccccc3[N+](=O)[O-])CC2)cc1
    0.3	-0.6	-0.2%	1.8%	-3.9	-26.4%	0.1
COc1ccc(-n2nnnc2C(CCSC)N2CCN(C/C=C/c3ccccc3)CC2)cc1 (configuration not stated)
    .	.	5.3%	-1.6%	.	.	0.0
Cc1ccc(Nc2nc(NCc3ccco3)nc3nccnc23)cc1C
    .	.	14.5%	-0.5%	.	.	-0.6
CCOc1ccc(Cl)cc1-c1cc(C(=O)NCCc2ccncc2)[nH]n1
    .	.	-0.4%	-0.9%	.	.	-1.0
O=C1NC(=S)N(c2cccc(Cl)c2)C12CCCCC2
    10.9	16.4	2.0%	1.0%	-0.2	5.4%	1.5
CCn1c(C(C)NS(=O)(=O)c2ccc(Cl)cc2)n[nH]c1=S (configuration not stated)
    2.2	8.1	-1.1%	-3.8%	0.0	2.2%	1.4
CC(=O)Nc1ccc(CN2CCN(CC=C(C)C)C(CCO)C2)cc1 (configuration not stated)
    -9.5	-13.4	0.5%	-0.6%	-3.0	10.2%	-0.4
Cc1nn(C(C)C(=O)NCC2CCCO2)c(C)c1[N+](=O)[O-] (configuration not stated)
    -3.9	-12.5	1.3%	-0.2%	1.0	25.7%	-0.4
CSc1ccc(CN(C)Cc2nc3cc(C(F)(F)F)ccc3c(=O)[nH]2)cc1
    2.2	-6.5	1.3%	-2.3%	1.7	17.6%	0.1
N#CCCn1c(=O)c(CCc2ccccc2)nc2cnc(OCc3ccccc3)nc21
    .	.	0.2%	.	4.2	-7.4%	.
Cc1ccc(-n2nc3c(c2NC(=O)CC(C)C)CS(=O)(=O)C3)c(C)c1
    5.7	.	0.2%	-2.5%	2.9	12.5%	.
COc1cc(-c2nnc(NC(=O)CCS(=O)(=O)c3ccc(F)cc3)o2)cc(OC)c1OC
    2.3	22.1	8.1%	-3.4%	.	.	-1.0
O=C(NCCc1nc2ccccc2n1Cc1c(F)cccc1Cl)c1ccco1
    .	-0.9	1.5%	-2.0%	.	.	2.3
Cn1c(=O)c2c(nc(SCC(=O)c3cccs3)n2Cc2ccc(F)cc2)n(C)c1=O
    12.1	-14.0	1.8%[38.3 µM]	-2.8%	6.5	1.5%	2.2
CCOc1ccc(NC(=O)CN(C)C(=O)c2ccc(=O)[nH]c2)cc1OCC
    11.9	27.8	1.8%	-2.4%	.	-14.4%	0.3
CN(C)C(CNC(=O)c1cccc(S(=O)(=O)N2CCN(c3ccccc3)CC2)c1)c1ccccc1 (configuration not stated)
    .	2.0	1.0%	-0.9%	.	.	-0.4
C=Cc1cc2c(cc1O)CCC1C2CCC2(C)C(O)CCC12 (configuration not stated)
    .	53.3	-1.0%	-27.1%	.	.	1.5
CCOc1ccc2oc(C(=O)OCC(=O)NC3CCCC3)c(C)c2c1
    -16.1	53.0	9.8%	3.6%	.	.	1.2
Cc1ccccc1C(=O)OCC(=O)N1CC(=O)Nc2ccccc21
    .	2.7	0.6%	-1.0%	.	.	-0.8
Cc1ccc(Nc2ncnc(N)n2)cc1
    -9.1	-14.3	0.3%	.	-1.1	2.1%	-0.1
CC12CCC(C(=O)Nc3ccccc3Br)(C/C1=N\O)C2(C)C (configuration not stated)
    -9.5	12.8	-0.3%	-1.2%	6.6	18.9%	-0.3
CC(=O)Nc1ccc(S(=O)(=O)Nc2cc(S(=O)(=O)N3CCCCC3)ccc2O)cc1
    -5.5	15.2	2.1%	.	.	.	0.8
O=C(COc1ccc2c3c(c(=O)oc2c1)CCCC3)NCc1cccnc1
    20.0	-4.1	-1.2%	3.1%	.	17.8%	-1.5
O=C(Cc1ccc([N+](=O)[O-])cc1)N1N=C2CCCCC2C1(O)C(F)(F)F (configuration not stated)
    .	-9.7	0.1%	.	8.1	8.2%	-0.3
Cc1ccc(NC(=S)NCC(C)CSc2ccc(Cl)cc2)cc1 (configuration not stated)
    -11.8	9.0	1.2%	.	0.9	16.2%	0.8
CCCc1c(C(=O)N/N=C/c2ccncc2)nnn1-c1nonc1N
    0.2	27.7	-0.5%	-0.6%	-1.4	7.8%	0.1
COc1cc(NC(=O)C2CCN(c3cnccn3)CC2)cc(OC)c1OC
    3.2	19.2	-0.4%	-6.3%	.	4.5%	-0.4
COc1cc(OC)cc(C(=O)N(Cc2ccco2)Cc2cccs2)c1
    .	.	0.0%	0.1%	.	.	1.2
COc1ccccc1N1CCN(C(c2cccs2)C(C)NS(=O)(=O)c2ccccc2)CC1 (configuration not stated)
    9.4	17.1	1.3%	-1.8%	1.9	21.6%	1.9
CCc1ccc(CNC(=O)Cc2ccc(NC(=O)N3CCSc4ncccc43)cc2)cc1
    .	-2.3	6.3%	-13.4%	.	.	0.8
CC1CCN(C(=O)c2cc(S(=O)(=O)N3CCCCC3)c[nH]2)CC1
    -4.8	-1.0	2.3%	3.7%	-0.4	7.5%	-0.2
Cc1nnc(SCC(=O)Nc2ccc(F)cc2F)n(N)c1=O
    -10.2	4.2	0.9%	-1.3%	.	10.4%	0.1
COc1ccc2c(c1)c(C(=O)CN(C)C)c(C)n2C
    .	.	0.6%	-15.2%	.	.	-0.2
O=S(=O)(NCC1CCN(c2ccc(S(=O)(=O)N3CCOCC3)cc2)CC1)c1ccc(F)cc1
    3.0	-2.8	0.6%	.	-0.6	-3.6%	-0.3
O=C(COC(=O)Cc1ccsc1)Nc1cccc(F)c1
    -12.2	13.7	-0.3%	-1.6%	.	.	0.6
CC1=NOC(=O)/C1=C/c1ccc(O)c(Br)c1
    6.7	10.4	16.5%	.	?	-29.3%	-0.6
COCCC(=O)NC12CC3CC(CC(C3)C1)C2
    1.2	-2.2	6.8%[38.3 µM]	-0.5%	3.3	19.3%	0.5
CC(C)NS(=O)(=O)c1ccc(NC(=O)C(C)OC(=O)C2CCC2)cc1 (configuration not stated)
    3.7	-2.8	2.2%	-0.5%	.	.	-0.5
CCn1c(=N)n(CC(=O)c2ccc(OC)c(OC)c2)c2ccccc21
    4.5	0.4	-0.9%[38.3 µM]	-5.6%	?	-3.3%	1.3
CC(=O)N1c2c(cc(Br)cc2S(=O)(=O)N2CCN(c3ccccc3F)CC2)CC1C (configuration not stated)
    21.3	24.0	0.4%	.	1.1	-0.8%	0.0
Cc1cc(C)n2c(SCc3ccc(Br)cc3)nnc2n1
    -38.4	-0.8	1.5%	-25.8%	1.4	-17.7%	-1.0
CC[C@H](C)[C@@H](CO)NC(=O)[C@H]1O[C@@H](n2ccc(=O)[nH]c2=O)[C@H](O)[C@@H]1O
    .	.	1.4%	2.1%	.	.	0.0
CN(C)S(=O)(=O)c1ccc(S(=O)(=O)N(CC(=O)Nc2ccccc2)Cc2ccco2)cc1
    10.7	-2.5	9.6%	0.8%	2.3	1.2%	-0.8
Cn1c(CCC(=O)OCC(=O)NCc2ccccc2Cl)nc(=O)c2ccccc21
    3.7	-1.3	-1.1%	.	0.1	24.7%	0.0
CS(=O)(=O)Oc1ccc2c(c1)O/C(=C\C=C\c1ccccc1)C2=O
    -7.9	14.8	?	.	?	-21.8%	3.7
C=CCN1C2CCCC1CC(NC(=O)Nc1cc(C)cc(C)c1)C2 (configuration not stated)
    -6.4	21.4	-0.8%	.	0.2	-2.8%	-0.7
COc1ccc(C(=O)NC(=O)COC(=O)c2ccc(C)o2)cc1
    ?	3.2	0.4%	0.4%	.	.	-0.3
CCC1=NN(C(=O)C(=O)NCCc2ccccc2)C(O)(C(F)(F)F)C1 (configuration not stated)
    4.6	18.6	.	1.1%	-4.5	6.7%	0.0
COc1ccc(N(CC(=O)O)S(=O)(=O)c2cccnc2)cc1
    9.1	-9.5	1.9%	-0.7%	0.8	8.6%	-0.8
O=C(CSc1ccc2nc(-c3ccccc3)cn2n1)Nc1ccccc1
    .	-6.9	0.5%	3.8%	.	.	-0.2
O=C(COC(=O)c1cc(=O)[nH]c2ccccc12)Nc1ccc(F)cc1
    .	-5.5	0.9%	-6.0%	.	.	0.1
CCOC(=O)C1=C(C)N=c2s/c(=C3/C(=O)Nc4ccccc43)c(=O)n2C1c1ccc(C)cc1 (configuration not stated)
    ?	37.9	0.2%	-1.5%	-0.5	24.2%	0.3
COc1ccccc1NS(=O)(=O)c1cc(NC(=O)c2sccc2C)ccc1N1CCOCC1
    4.1	23.2	0.4%	-0.5%	2.5	1.7%	0.6

Additional results follow:
Values run as follows: TRPV1 potentiator	TRPML1 blocker	PINK1 modulator	ClpP mod	Menin-MLL FL inh	Sfp PPTase inh	TRPML1 ag
CCOc1ccccc1OCCCOc1ccc(C)cc1Cl
    4.6	-7.0	8.0%	-1.5%	0.6	0.1%	0.2
COc1ccc(-c2noc(C3CCCN(C(=O)CCc4ccccc4)C3)n2)cc1 (configuration not stated)
    -13.9	2.1	1.6%[38.3 µM]	1.7%	-0.8	-22.7%	3.8
CCCCNC(=O)C[C@@H]1C[C@@]2(C(=O)OCC)CCCC=C2N(Cc2ccc(Cl)cc2Cl)C1=O
    .	.	6.3%	2.8%	.	.	-0.7
COC(=O)c1cn(C(=O)/C=C/c2ccc(OC)c(OC)c2)c2ccccc12
    4.6	12.9	-1.4%	.	-0.6	-4.9%	-0.4
N#Cc1ccccc1OCc1cccc(S(=O)(=O)N2CCOCC2)c1
    -17.0	-10.0	-0.6%	0.6%	.	.	-0.3
